Rango complex inh = prevents formation of the Rango-importin beta complex; AID 540263; Potency, µM (doses to about 92.2 µM), without a hit: top-dose inhibition of complex formation; 340,000 compounds, 0.031% hits; Rango CFP/YFP FRET sensor + importin beta, 45 min; active = rising FRET ratio curve, often small or poorly fitted; inconclusive = mostly compound fluorescence or quenching in the first reads; inactive = flat curves in all reads;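 also: potency is read from the fitted curve at half-maximal effect; 0% = DMSO wells and 100% = buffer wells lacking importin beta; nearly all actives have a fitted effect of over 15% in size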
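FRET biosensor (snurportin 1 IBB flanked by EYFP and cerulean), 50 nM, with compound 5 min, then 0.125 microM importin beta in PBS, 1 mM DTT, 0.02% Tween-20, 0.1% BSA. CFP/YFP ratio read after 45 min at room temperature; pre-read flags interference.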
GLA inh pH 4.5 = blocks human alpha-galactosidase A at pH 4.5; 230,000 tested, under 10 active; purified enzyme, 4-MU-alpha-Gal fluorescence, pH 4.5; P06280; activity change, negative = inhibition, % at 105 µM; AID 1467; inconclusive = small, poorly fitted or top-dose-only inhibition, or a rising curve; inactive = flat fitted curve, though single readings scatter; no compound was filed as active;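 also: 0% = full activity with enzyme and -100% = basal without enzyme; dose as in the result columns while the protocol names 77 µM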
Target sequence (P06280 whole entry, looked up): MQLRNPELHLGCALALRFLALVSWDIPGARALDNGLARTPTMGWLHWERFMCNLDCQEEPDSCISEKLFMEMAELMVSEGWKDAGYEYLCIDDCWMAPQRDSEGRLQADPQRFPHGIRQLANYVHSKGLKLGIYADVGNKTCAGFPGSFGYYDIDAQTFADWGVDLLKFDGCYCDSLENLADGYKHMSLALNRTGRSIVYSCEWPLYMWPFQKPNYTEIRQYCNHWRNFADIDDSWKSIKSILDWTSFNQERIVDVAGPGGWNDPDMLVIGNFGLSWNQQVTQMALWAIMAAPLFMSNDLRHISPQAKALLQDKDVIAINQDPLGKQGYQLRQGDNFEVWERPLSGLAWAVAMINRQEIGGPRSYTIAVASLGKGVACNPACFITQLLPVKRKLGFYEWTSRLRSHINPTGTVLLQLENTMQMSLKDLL
miR-21 reporter = raises the signal of a miR-21 reporter; 340,000 tested, under 10 active; HeLa miR-21 FLuc reporter, luciferase, 48 h; Potency, µM (doses to about 38.3 µM), for the others: at the top dose reporter change, positive = more light; active = well fitted rising curve with a large enough effect; inconclusive = small, poorly fitted or top-dose-only effect; inactive = no such curve, though single readings can be large or run the other way;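 also: % of control where 0% means no effect; miR-21 action dims this reporter so a rising signal means less miR-21 action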
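Using DMEM plus 10% FBS, HeLa miR-21-FLuc cells are incubated with test compounds (final up to about 40uM) for 48 hours; firefly luciferase signal is then imaged following reagent-mediated lysis.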
Rango release inh = prevents RanGTP from dissociating the Rango-importin beta complex. Potency, µM (series often up to 46.1 µM), for the others: top-dose activity change, negative = inhibition. AID 540253. O95149+P62826. Biochemical FRET Rango-importin beta, RanGTP-induced dissociation. 340,000 compounds, 0.071% hits; active means falling FRET ratio curve, often poorly fitted, with flat reads before Ran was added; inconclusive means other falling curves, or compound fluorescence or quenching; inactive means flat or rising ratio curve;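 also: potency is read from the fitted curve at half-maximal effect; % of control where 0% means no effect; nearly all actives have a fitted effect of over 45% in size; -100% = wells without RanGTP and RCC1; the record marks most hits as doubtful in a second field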
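Rango FRET biosensor (snurportin-1 IBB flanked by N-terminal EYFP and C-terminal CFP10) at 0.1 uM, with 0.25 uM importin beta in PBS, 1mM DTT, 0.02% Tween-20, 0.1% BSA. 0.6 uM Ran, 2mM GTP and 0.2 uM RCC1 were then added for 45 min at room temperature. Inhibition read as loss of FRET rise.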
Starred values were filed as active, the others as inactive; ? = inconclusive; nt = not tested or not shown; & = joins results of further samples. The list is partial; rates above refer to the full screens.

item	Rango complex inh	GLA inh pH 4.5	Compound	miR-21 reporter	Rango release inh
1	2.6%	?	Nc1c(Cl)cc(Cl)cc1C(=O)OCC(=O)N1CCCC1	-17%	-8%
2	0.5%	nt	CCN(CC(=O)NCc1ccc(Cl)cc1)C(=O)c1ccc(S(=O)(=O)NCc2ccco2)cc1	9%	-10%
3	-2.7%	-8	CCOc1ccc(NC(=O)N2CCC(c3nc4ccccc4[nH]3)CC2)cc1	4%	-6%
4	4.0%	1	COc1cc(/C=N/NC(=O)c2ccc(Cl)c(S(N)(=O)=O)c2)ccc1OCC(N)=O	0%	10%
5	0.4%	3	N#CC(C(=O)c1ccco1)c1ccccn1 (stereo not given)	-31%	1%
6	-1.0%	nt	C=CCOc1ccccc1CN1CCC(Oc2cc(C(=O)NC3CC3)ccc2OC)CC1	0%	1%
7	0.2%	4	Cc1ccc(S(=O)(=O)N2CCOCC2)cc1C(=O)OCC(=O)NC1CCS(=O)(=O)C1 (stereo not given)	-3%	1%
8	?	nt	CCOc1ccc(CCNC(=O)c2nnn(CC(=O)Nc3ccccc3C)c2N)cc1OCC	1%	-5%
9	6.0%	nt	CCc1ccc(NC(=O)CCn2c(=O)c3cccn3c3ccccc32)cc1	17%&8%	-4%
10	-2.4%	17	Cc1ccc(NC(=O)C(=O)NNC(=O)c2ccccc2C)cc1Cl	-6%	-2%
11	0.2%	nt	Cc1ccc(S(=O)(=O)NCCn2cnc([N+](=O)[O-])n2)cc1	6%	14%
12	-4.7%	nt	COc1ccc(N2CC(C(=O)N3CCC4(CC3)CC(=O)c3ccccc3O4)CC2=O)cc1 (stereo not given)	nt	-7%
13	-5.0%	3	CCCC(=O)Nc1ccc(NC(=O)c2ccco2)c(OC)c1	-57%	13%
14	-1.3%	5	O=C(CCCOc1ccccc1)NCCc1ccccc1	0%	1%
15	-4.1%	3	CCOc1ccc2oc(C(=O)OC(C(=O)NC(N)=O)C(C)C)c(C)c2c1 (stereo not given)	-40%	-6%
16	-0.2%	-3	COC(=O)/C(=C/Nc1ccccc1)[N+](=O)[O-]	-4%	8%
17	1.5%	nt	O=S(=O)(Nc1ccc(S(=O)(=O)Nc2nccs2)cc1)c1ccc(Br)cc1	-6%	-11%
18	-1.4%	-7	CCCCCCOC(=O)C[N+](C)(C)CCOC1CC2CCC1(C)C2(C)C (stereo not given)	30%	19%
19	-0.1%	nt	Cc1ccc(C)c(NC(=O)CN(C)C(C)C(=O)N2CC(C)CC(C)C2)c1 (stereo not given)	nt	24%
20	?	nt	CCOc1ccccc1C(=O)OC(C)C(=O)Nc1ccc(S(=O)(=O)N2CCCC2)cc1 (stereo not given)	nt	0%

Next part
item	Rango complex inh	GLA inh pH 4.5	Compound	miR-21 reporter	Rango release inh
21	5.1%	1	O=C(c1ccncc1)N1N=C2CCCCCC2C1(O)C(F)(F)F (stereo not given)	-6%	4%
22	-0.9%	nt	O=C(O)CSc1nnc2n(-c3ccccc3)c(=O)c3ccccc3n12	0%	-16%
23	-4.0%	2	CN(C)c1cccc(C(=O)NCc2ccccc2Cl)c1	-32%	-14%
24	-2.3%	-4	CC1CCCCC1NC(=O)C1CCN(S(=O)(=O)c2cccc3nsnc23)CC1 (stereo not given)	-4%	-12%
25	-1.3%	-13	COc1ccc(Cl)cc1NC(=O)CN(C)CC(=O)Nc1ccccc1-c1ccccc1	9%	5%
26	-1.4%	-6	O=C(Oc1cccc2c(O)cccc12)c1ccccc1	-7%	-14%
27	2.0%	-4	CC(C)CNC(=O)CCc1c[nH]c2ccccc12	-2%	13%
28	-1.1%	-9	Cc1cnccc1CN(C)Cc1cn(C)nc1-c1cccc(Cl)c1	-4%	-14%
29	2.8%	4	O=C(NC(=S)NC1CCCc2ccccc21)c1ccco1 (stereo not given)	-8%	20%
30	-3.1%	nt	COc1ccc(N2CCN(S(=O)(=O)CCNC(=O)CCCc3ccccc3)CC2)cc1	nt	-6%
31	3.9%	8	CC(O)C1CCC2C3CC[C@H]4CC(O)CCC4(C)C3CC3(OCCO3)C12C (stereo not given in full)	3%	21%
32	-4.1%	-1	O=C(/C=C/c1ccc(OCCCF)cc1)NCc1ccc(Cl)cc1	-3%	-11%
33	-3.2%	-4	O=c1[nH]c2ccccc2[n+]([O-])c1-c1ccccc1	-5%	0%
34	0.7%	nt	N/C(=N\NS(=O)(=O)c1ccccc1)c1ccccn1	nt	12%
35	0.5%	-1	NC(=O)C1CCN(c2nnnn2-c2ccccc2)CC1	-7%	7%
36	-3.1%	3	CCOC(=O)CC1COCCN1Cc1cn(C)nc1-c1ccccc1F (stereo not given)	-2%	14%
37	1.9%	-18	COC(=O)/C(=C\C(=O)c1ccccc1)Nc1ccc(OC)cc1	-51%	-5%
38	-0.1%	nt	CCN(CC)S(=O)(=O)c1ccc(N2CCCCC2)c(NC(=O)C2=COCCO2)c1	nt	-16%
39	nt	-3	Cn1nc(CC(=O)Nc2cccnc2N2CCOCC2)c2ccccc2c1=O	-6%	nt
40	2.5%	-2	Cc1nc2ccccc2n1C1CCN(C(=O)Nc2ccccc2)CC1	-5%	11%

4 structures out of the list, arranged by formula weight, rising:
item	Rango complex inh	GLA inh pH 4.5	Compound	miR-21 reporter	Rango release inh
27	2.0%	-4	CC(C)CNC(=O)CCc1c[nH]c2ccccc12	-2%	13%
35	0.5%	-1	NC(=O)C1CCN(c2nnnn2-c2ccccc2)CC1	-7%	7%
24	-2.3%	-4	CC1CCCCC1NC(=O)C1CCN(S(=O)(=O)c2cccc3nsnc23)CC1 (stereo not given)	-4%	-12%
38	-0.1%	nt	CCN(CC)S(=O)(=O)c1ccc(N2CCCCC2)c(NC(=O)C2=COCCO2)c1	nt	-16%

Other compounds follow:
item	Rango complex inh	GLA inh pH 4.5	Compound	miR-21 reporter	Rango release inh
41	0.2%	nt	COc1cccc(OC)c1OC(=O)/C=C/c1ccc(C)o1	-3%	-11%
42	-0.3%	nt	COc1ccc(CC(=O)Nc2ccccc2C(=O)N2CCCC2)cc1	-3%	9%
43	-0.7%	nt	N#Cc1ccccc1OCC(=O)N1CCN(C(=O)c2ccco2)CC1	-1%	17%
44	0.1%	3	Nc1nc(-c2cc(Cl)cc(Cl)c2OC(F)F)cs1	-3%	2%
45	0.1%	5	CC(=O)Nc1ccc(CN2CCN(Cc3ccc(F)c(F)c3)C(CCO)C2)cc1 (stereo not given)	-3%	4%
46	0.4%	1	COc1cc2c(cc1OC)CN(C(=O)NS(=O)(=O)c1ccc(C)cc1)CC2	-10%	1%
47	-0.6%	14	COc1ncnc2sc3c(c12)CCCC3	-2%	-11%
48	0.8%	-4	CCCCn1c(-c2csc(C(C)C)c2)n[nH]c1=S	-6%	37%
49	2.0%	nt	COc1cc(C(=O)NCCOC(=O)c2cccc(N(C)C)c2)cc(OC)c1OC	1%	3%
50	?	nt	COCCN(C(=O)Cc1csc(-c2cccc(Cl)c2)n1)c1c(N)n(Cc2ccccc2)c(=O)[nH]c1=O	nt	-16%
51	0.1%	16	NC(=O)c1ccccc1OCC(=O)NS(=O)(=O)c1ccc(Cl)cc1	2%	-6%
52	0.0%	9	CCCCC(CC)CNC(=O)C(=O)C1C(=O)Nc2ccccc21 (stereo not given)	-1%	-3%
53	-1.2%	nt	Cc1ccnc(NC(=O)CC(NC(=O)c2ccccc2Cl)c2ccccc2)c1 (stereo not given)	nt	9%
54	-1.3%	-3	COCCNC(=O)c1onc(CSc2ccccc2C)c1C(=O)O	-4%	-5%
55	nt	1	CCc1ccc(-c2cc(-c3n[nH]c(=S)n3CC)c3ccccc3n2)cc1	-45%	nt
56	-1.4%	nt	CC1CCN(S(=O)(=O)c2cccc(C(=O)N3CCN(c4ccc(F)cc4)CC3)c2)CC1	13%	-13%
57	-1.4%	nt	C=C1CCC[C@]2(C)C[C@H]3OC(=O)C(CNC(C)CC)[C@H]3CC12 (stereo not given in full)	7%	-6%
58	-0.5%	-2	COc1ccc(C2(O)CCN(CC(=O)Nc3nccs3)CC2)c(OC)c1	-6%	0%
59	-2.0%	nt	COc1ccc(/C=N\NC(=O)c2ccccc2Br)cc1COc1ccccc1	-7%	1%
60	0.6%	-1	COc1cccc(S(=O)(=O)Nc2ccc(C(=O)N3CCN(C(=O)c4ccco4)CC3)cc2)c1	11%	20%

Further entries.
item	Rango complex inh	GLA inh pH 4.5	Compound	miR-21 reporter	Rango release inh
61	-0.4%	6	COc1ccc(NC(=O)CSc2nnc(NC(=O)c3ccco3)s2)cc1	-15%	-3%
62	1.2%	-6	CCCC(C(=O)Nc1nccs1)c1ccccc1 (stereo not given)	1%	1%
63	0.2%	-1	CN(C1=NS(=O)(=O)c2ccccc21)c1ccc(OC(=O)c2ccncc2)cc1	0%	19%
64	4.0%	-5	Cc1cc(C(=O)CN2C(=O)NC3(CCCCC3)C2=O)c(C)n1-c1ccc2c(c1)OCO2	-8%	-6%
65	7.1%	-7	COc1ccc(S(=O)(=O)N2CC(C(=O)O)Oc3ccc(CC(=O)O)cc32)cc1 (stereo not given)	-6%	1%
66	3.9%	nt	O=C(NCCCN1CCCC1=O)Nc1ccc(Cl)cc1	nt	-19%
67	?	nt	Nc1nnnn1/N=C/c1ccccc1O	nt	-23%
68	-3.4%	4	COc1cccc(C2/C(=C(/O)c3ccc(C)cc3)C(=O)C(=O)N2Cc2ccco2)c1 (stereo not given)	8%	-4%
69	-0.8%	1	O=C(Cc1ccccc1)Nc1ccccc1Sc1ccccc1	-14%	4%
70	6.0%	11	O=C(c1oc(=O)c2ccccc2c1-c1ccccc1)N1CCOCC1	-10%	26%
71	-0.7%	0	CCOC(=O)/C=C/c1cnn(-c2ccccc2)c1	-62%	15%
72	4.4%	1	N=c1n(Cc2ccccc2)c2ccccc2n1CC(O)c1ccccc1 (stereo not given)	22%	1%
73	-1.7%	nt	CSc1n[nH]c(N)c1S(=O)(=O)c1ccc(Cl)cc1	0%	9%
74	-0.3%	nt	COc1ccccc1NC(=O)COc1coc(CN2CCN(c3ccccc3)CC2)cc1=O	nt	-3%
75	-3.8%	-4	Cn1c(NC(=O)C2CC2)cc(=O)n(C)c1=O	6%	1%
76	7.8%	3	CC(=O)Nc1ccc(/C=C(\C#N)C(N)=O)cc1	-12%	4%
77	-0.6%	-5	O=C(O)CC1(CC(=O)Nc2ccc(Cl)cc2C(=O)c2ccccc2)CCCC1	-13%	12%
78	4.9%	-3	O=[N+]([O-])c1cccc2ccc(/C=C/c3ccc(Cl)cc3)nc12	-39%	5%
79	0.2%	4	CSC1=NCCN1CCOc1ccccc1	2%	-2%
80	?	-8	CCN(CC)c1ccc2cc(C(N)=O)/c(=N\NC(=O)c3ccncc3)oc2c1	-24%	?

Next part:
item	Rango complex inh	GLA inh pH 4.5	Compound	miR-21 reporter	Rango release inh
81	2.2%	nt	COc1ccc(C(C(=O)NC2CCCC2)N(C(=O)c2ccco2)c2ccccc2C(C)=O)cc1OC (stereo not given)	-1%	-8%
82	-0.4%	2	O=Nc1c(O)n(Cc2cccc(C(F)(F)F)c2)c2ccccc12	11%	5%
83	-3.5%	6	O=C1NC(=O)c2cc(Br)cc3cccc1c23	-1%	-10%
84	6.0%	-20	Cc1ccc(NC(=O)/C(=C/C=C/c2ccccc2)NC(=O)c2ccccc2)cc1	-9%	-12%
85	0.2%	4	O=C(Nc1ccc2c(c1)CCC2)c1cccc(S(=O)(=O)Nc2ccccc2Cl)c1	-1%	11%
86	3.0%	-10	CC(=O)N(CN1C(=O)c2ccccc2C1=O)c1ccc2c(c1)oc1ccccc12	-6%	-8%
87	1.1%	-12	O=C(NCCc1ccccc1)c1ncn[nH]1	-10%	-11%
88	-1.8%	-1	Cc1c(Cl)cnc(NC(=O)COC(=O)c2cccc(S(=O)(=O)N3c4ccccc4CC3C)c2)c1Cl (stereo not given)	-4%	-1%
89	0.0%	4	CCCC(=O)N1CCN(c2ccc(NC(=O)c3sc4ccccc4c3Cl)cc2)CC1	-7%	-13%
90	-2.2%	nt	Cc1ccc(NC(=O)C2CCN(S(=O)(=O)c3cccc(C(F)(F)F)c3)CC2)nc1	nt	-9%
91	-0.4%	-2	Cc1ccc(C(=O)Nc2ccc3c(c2)CCC3)cc1	19%	-7%

Bioassay records: PubChem BioAssay, National Center for Advancing Translational Sciences (NCATS)
